Beta cell apopt = beta cell apoptosis inhibition; protection from apoptosis, % (concentration not given with the values); AID 435005; INS-1E cytokine-induced death, ATP luminescence, 48 h; percent of positive-control rescue, neutral wells zero; actives 0.8% (n = 300,000);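 active = all replicates at 75% or more, or half of them and the mean; inconclusive = half reach 75% but not the mean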;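 note: 0% = cytokine-treated negative control wells and 100% = positive control rescue; higher means more ATP so stronger rescue from cytokine killing; wells of about 40 µL received 100 nL stock; the first replicate is given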
UCH37 DUB inh = inhibitors of human deubiquitinating enzyme UCH37 | actives 0.33% (n = 330,000) | inhibition, % (test concentration not listed) | Q9Y5K5 | purified proteasome/UCH37, Ub-AMC cleavage fluorescence;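 active = mean of two replicates above 20%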;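 note: 0% = compound-free wells with enzyme and 100% = wells lacking proteasome; stock transfer was 100 nL into about 20 µL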
Target sequence (Q9Y5K5 whole entry, looked up): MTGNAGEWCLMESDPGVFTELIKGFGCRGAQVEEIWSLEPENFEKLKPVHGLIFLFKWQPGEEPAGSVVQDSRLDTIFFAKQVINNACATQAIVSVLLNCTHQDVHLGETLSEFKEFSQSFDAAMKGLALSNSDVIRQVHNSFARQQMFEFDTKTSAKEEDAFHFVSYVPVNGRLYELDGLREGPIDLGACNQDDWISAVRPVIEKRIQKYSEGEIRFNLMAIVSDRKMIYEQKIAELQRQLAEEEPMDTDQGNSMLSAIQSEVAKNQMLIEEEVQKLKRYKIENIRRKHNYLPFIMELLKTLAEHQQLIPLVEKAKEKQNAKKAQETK
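assay system = human UCH37 enzyme supplied as purified proteasome complex | amount = proteasome at 0.15 nM in the dispensed enzyme solution | schedule = 30 min compound-proteasome preincubation then 25 min substrate reaction, room temperature | measured by = fluorescence, ex 355 nm, em 460 nm | benchmarks = no-proteasome wells (full inhibition) and compound-free wells (no inhibition)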
A1 inh = inhibitors of the anti-apoptotic protein A1, read as caspase activation. AID 2462. caspase activation, % (test concentration not listed). MEF A1-2A-BIM cells, Caspase-Glo 3/7 luminescence, 3 h; percent of clofoctol response, vehicle zero. actives 0.066% (n = 330,000);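 active = over half of replicate activation scores above 10%, or exactly half above 10 with the replicate mean above 10; inconclusive = replicate mean below 10 yet half the replicates above 10; inactive = over half of replicates below 10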;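 note: wells of about 30 µL received 50 nL stock; many hits fall short of the cut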
B2AR ag = activates human beta-2 adrenergic receptor causing internalization; P07550; Am2.2-beta2AR cells, FAP receptor internalization, flow cytometry; reference of the scale not given here; response, % (concentration not given with the values); actives 0.43% (n = 340,000); AID 504454;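 active = response above a set limit, near 3 SD of response in nonfluorescent compounds, cut at about 42% in these data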;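 note: stock transfer was 100 nL into about 11 µL; a reference agonist was the positive control; negative values mostly stem from fluorescent compounds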
Target sequence (P07550 whole entry, looked up): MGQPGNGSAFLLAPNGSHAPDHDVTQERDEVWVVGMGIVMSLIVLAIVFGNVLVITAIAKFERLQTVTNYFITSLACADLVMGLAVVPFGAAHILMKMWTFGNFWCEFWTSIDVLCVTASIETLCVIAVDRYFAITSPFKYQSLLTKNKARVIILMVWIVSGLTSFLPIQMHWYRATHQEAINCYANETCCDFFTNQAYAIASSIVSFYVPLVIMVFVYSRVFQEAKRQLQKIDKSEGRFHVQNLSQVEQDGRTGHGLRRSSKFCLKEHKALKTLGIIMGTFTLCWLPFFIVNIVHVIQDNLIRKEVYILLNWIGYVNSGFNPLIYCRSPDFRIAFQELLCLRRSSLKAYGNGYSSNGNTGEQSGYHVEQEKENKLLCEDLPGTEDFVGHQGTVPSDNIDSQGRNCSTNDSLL
LANA-H2A inh = blocks KSHV LANA binding to histone H2A/H2B; Q9QR71; cell-free LANA-H2A/H2B peptide, fluorescence polarization; inhibition, % (no concentration beside the values); actives 0.6% (n = 320,000); AID 2629; in the data active = inhibition mostly above about 10%, no sharp cut-off; inactive = mostly below about 6.7%;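 note: stock transfer was 7.5 nL into about 10 µL; 0% = median of vehicle wells and 100% = median of positive control wells; one replicate is shown; the record names a cut of 25% in any replicate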
RanGTP-Impb inh = disruptors of Ran-importin-beta complex formation – biochemical, FRET, CFP-Ran, YFP-importin-beta, homogeneous, primary screen. AID 2216. cell-free CFP-Ran/YFP-importin-beta FRET ratio. actives 1.1% (n = 300,000). inhibition, % (concentration not given with the values);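 active = most replicates above 15%; inconclusive = exactly half above 15%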;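 note: 0% = DMSO wells and 100% = Ran loaded with GDP instead of GTP; wells of about 40 µL received 100 nL stock; the first replicate is given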
T cruzi repl = blocks replication of Trypanosoma cruzi. inhibition, % (no concentration beside the values). AID 1885. T. cruzi beta-gal in NIH3T3, luminescence, 90 h. actives 1.4% (n = 300,000);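 active = mean inhibition across valid replicates above about 55%, limit read from the data; inconclusive = mean below that limit but half or more replicates reach it; inactive = mean below it, under half of replicates reach it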;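 note: signal also drops with host cell toxicity which is not excluded here; 0% = plate median of DMSO wells and 100% = zero luminescence signal; higher percent means less beta-gal luminescence so fewer parasites; stock transfer was 50 nL into about 50 µL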
Calb FLC = affects C. albicans growth with fluconazole | actives 0.57% (n = 300,000) | AID 1979 | C. albicans CaCi-2 (fluconazole-resistant clinical isolate) + fluconazole, Alamar Blue growth, 48 h | growth inhibition, % (test concentration not listed);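 active = most replicates above 75%; inconclusive = exactly half above 75%; inactive = most below 75%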;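 note: all wells also contain fluconazole at 8 µg/ml as a sub-toxic cotreatment; 0% = median of DMSO wells and 100% = median of geldanamycin control wells; wells of about 8 µL received 7.5 nL stock; the first replicate is given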
* = called active by the depositor; u = inconclusive; x = no result given. Rows were taken by chance. About 4.3% of those tested had a hit in this group.

SMILES | Beta cell apopt | UCH37 DUB inh | A1 inh | B2AR ag | LANA-H2A inh | RanGTP-Impb inh | T cruzi repl | Calb FLC
CC(C)NC(=O)c1cc2cc([N+](=O)[O-])ccc2s1 | 1 | 5.1 | 1.2 | -11 | -0.6 | 0.6 | -13 | -3
O=C1CCc2cc(S(=O)(=O)NC(Cc3ccccc3)C(=O)NCC3CCCO3)ccc2N1 (stereo unspecified) | -11 | 4.2 | 0.4 | 1 | 1.9 | -0.9 | -5 | 0
C[C@H]1CCC(=O)N([C@H](CSc2ccc(Br)cc2)Cc2ccccc2)CC1 | 6 | 6.7 | 0.1 | 8 | -6.8 | x | x | x
CC(Sc1nncn1C)C(=O)Nc1nnc(C(C)C)s1 (stereo unspecified) | 3 | 4.3 | -0.1 | 1 | 2.9 | 2.2 | -3 | -6
NC(=O)C1=CN(Cc2ccc(Cl)cc2)CCC1C(F)(F)F (stereo unspecified) | -9 | 1.2 | -0.2 | 6 | 1.9 | u | 22 | 5
CCCCN(C(=O)CNC(=O)c1ccco1)C(C(=O)NC1CCCC1)c1ccc(OC)cc1 (stereo unspecified) | 2 | 3.5 | 0.1 | -18 | 0.5 | -0.2 | -9 | 1
COc1c(C)cccc1C(=O)NCCCNC(=O)c1ccc(C)nc1 | 2 | 2.7 | 0.3 | 5 | 10 | 0.7 | 4 | 27
O=C1N(Cc2cccc(Cl)c2)C[C@@H]2C[C@@H](c3c[nH]c4ccccc34)N3CCC[C@@]123 | -6 | 5.1 | -1.5 | 10 | -0.6 | -0.7 | 58* | 35
CCOP(=O)(OCC)/C(C#N)=C(\O)c1ccc(OC)cc1 | 1 | 1.7 | 0.3 | -6 | -0.8 | 0.1 | -6 | 4
COc1ccc(C)cc1S(=O)(=O)N1CC(C)OC(C)C1 (stereo unspecified) | -1 | 3.2 | 1.0 | 5 | 1.5 | u | -13 | -1
O=C(N/N=C/c1ccc2nccnc2c1)c1cccc([N+](=O)[O-])c1 | -1 | x | -1.1 | 1 | -3.2 | 0.4 | -10 | -6
CCC(C)Nc1nc(N)c([N+](=O)[O-])c(Nc2ccccc2OC)n1 (stereo unspecified) | -4 | x | -0.2 | 21 | -11 | 5.3 | 16 | 10
CCCCn1c(SCC(=O)N2CCOCC2)nc2c1c(=O)n(C)c(=O)n2C | -2 | 1.1 | 1.1 | -9 | -8.9 | 5.0 | -25 | -8
CCN(CC)C1CCN(C(=O)CCc2nnc(CCc3ccccc3)o2)C1 (stereo unspecified) | 6 | 1.4 | 0.3 | -3 | 2.1 | -0.9 | 3 | 3
Cc1cccc2sc(N(CCN(C)C)C(=O)c3cc(Cl)sc3Cl)nc12 | -6 | 2.0 | 0.0 | -4 | 1.0 | u | u | u
COc1ccc(-n2c(SCC(=O)Nc3ncc(Cl)cc3Cl)nc3ccccc32)cc1 | 21 | 3.4 | -0.6 | x | 0.7 | 4.9 | 9 | -16
CN(c1ccccc1)c1nc2ccsc2c(=O)s1 | -5 | 2.9 | 0.3 | 3 | -1.1 | 0.4 | 2 | 22
CC1CCCN(C(=O)c2ccc3c(=O)n(Cc4ccc5c(c4)OCO5)c(=S)[nH]c3c2)C1 (stereo unspecified) | 7 | 2.3 | -0.1 | 5 | 1.3 | u | 13 | 15
Cc1cc(C)cc(NC(=O)CSc2ccc(-c3ccco3)nn2)c1 | -5 | -1.7 | 0.5 | -13 | -2.9 | 4.4 | 1 | 8
O=C(NCc1ccc(F)cc1)C(c1ccccc1)N(C(=O)c1csnn1)C1CCCC1 (stereo unspecified) | 0 | -0.1 | -0.3 | 5 | -2.8 | 1.3 | -13 | -2
Cc1ccc(-n2c(C)c(C)c3c(NCCCO)ncnc32)cc1 | -6 | -0.5 | 0.1 | 4 | 0.7 | 0.6 | -6 | 8
CSc1ccc(CN2CCC(n3nccc3NC(=O)c3ccccc3C)CC2)cc1 | -5 | 4.1 | 1.0 | -6 | 1.5 | -0.2 | 30 | -4
O=c1oc2ccccc2c(O)c1/C=N/c1ncccn1 | -7 | x | -0.5 | 4 | -0.9 | 1.7 | -27 | 16
COc1cc(C(=O)O)ccc1Cl | 1 | 4.0 | 0.2 | -1 | -1.5 | 2.0 | 4 | -4
COc1cc([N+](=O)[O-])ccc1NC(=O)NCc1ccccn1 | -12 | 6.2 | -0.2 | -3 | -9.2 | 0.2 | 0 | -10

(cont.)
SMILES | Beta cell apopt | UCH37 DUB inh | A1 inh | B2AR ag | LANA-H2A inh | RanGTP-Impb inh | T cruzi repl | Calb FLC
Cc1cccn2c(=O)c3cc(C(=O)NC4CCCCC4)n(C)c3nc12 | 2 | -234 | -0.7 | 0 | -1.1 | -0.1 | 11 | 1
CN(Cc1ccccc1)C(=O)c1[nH]cnc1C(=O)Nc1cccc(Cl)c1 | -5 | -0.4 | 0.6 | -4 | 3.8 | x | x | x
CC(C)(C)c1ccc(C(=O)CS(=O)(=O)c2ccccc2)cc1 | 6 | 0.7 | 0.6 | -2 | -2.0 | 0.9 | 7 | -1
CCOC(=O)C1CCCCN1C(=O)/C(=C/c1ccc(OC)cc1)c1ccc(OC)c(OC)c1 (stereo unspecified) | -12 | -1.9 | 2.1 | 1 | -0.3 | x | x | x
CCOc1ccc(/C=C2\SC(=S)N(NS(=O)(=O)c3ccc(C)cc3)C2=O)cc1OC | -7 | 12 | -0.7 | 1 | -6.9 | 2.4 | -2 | -1
CN(C(=O)C1CCOC1)c1nnc(-c2cccnc2)s1 (stereo unspecified) | -2 | 3.5 | 0.2 | 0 | -2.7 | -4.1 | -10 | -4
CC(=O)c1ccc(NC(=O)c2ccc3c(Cl)c4c(nc3c2)CCCC4)cc1 | -2 | -18 | -0.3 | 60* | 1.2 | -1.2 | 12 | 22
COCCNC(=O)c1ccccc1-c1nc(-c2ccccc2Cl)no1 | 4 | -4.3 | 0.7 | 0 | 2.3 | 2.0 | 4 | -10
COC(=O)C1C(=O)C2=C(CC1C)Nc1ccccc1NC2c1cccs1 (stereo unspecified) | -2 | 3.9 | -0.1 | 4 | 3.1 | 4.1 | -3 | 4
Cc1ccccc1CSc1nnc(C)c(=O)[nH]1 | -7 | 11 | -0.1 | -16 | 1.5 | 0.8 | -1 | 7
CC(C)(C)NC(=O)COC(=O)c1ccc(NC(=O)CC#N)cc1 | 0 | -2.3 | -0.7 | 12 | -3.5 | 2.3 | 2 | 3
Cc1cc(N=NC(=O)c2ccccc2O)c2ccccc2c1O | -8 | 13 | -2.8 | -1 | -2.7 | x | -3 | x
Cc1ccnc(NC(=O)Nc2ccc3c(c2)OCO3)c1 | -3 | 4.8 | -6.7 | 3 | 0.9 | 2.9 | 0 | 2
CCOC(=O)C1C(c2ccccc2)C(C(=O)OCC)C1c1ccccc1 (stereo unspecified) | 5 | 3.3 | 0.7 | -3 | 1.6 | 0.7 | 13 | 8
CNc1ncc(C(=O)C(C)(C)C)s1 | -6 | 4.6 | -0.8 | -3 | -6.6 | 1.9 | 1 | -1
COCCNc1nc(-c2ccccc2)nc2ccccc12 | -2 | -0.2 | -0.4 | -15 | 3.9 | 2.0 | 22 | 41
Cc1ccc(Cl)cc1NC(=O)COC(=O)CC1CCCCC1 | -2 | 0.0 | 0.8 | 3 | -2.8 | x | x | x
COC(=O)Cc1ccc(NC(=S)NCCO)cc1 | -4 | 2.8 | 0.2 | -4 | 1.0 | 0.7 | -6 | -21
CC(C)Oc1ccc(CN2CCC(n3nccc3NC(=O)c3cccnc3)CC2)cc1 | x | -1.2 | -1.5 | 1 | 1.3 | 2.4 | 25 | 4
CC(C)(C)c1cc(C(=O)Nc2ccccc2)ccn1 | 0 | 0.2 | -0.4 | 3 | 5.8 | 2.1 | -9 | -4
CCOc1ncccc1C(=O)Nc1cc(S(=O)(=O)N2CCOCC2)ccc1OCC(F)(F)F | -11 | -2.3 | 0.2 | 19 | 0.6 | x | x | x
O=C(Nc1ccc2c(c1)CCC2)c1cccc(OC(F)F)c1 | 6 | 3.6 | -5.7 | -1 | -0.4 | 2.0 | 5 | 14
CCn1ccc(C(=O)Nc2ccc(S(=O)(=O)Nc3ccccc3OC)cc2)n1 | -5 | 1.0 | -0.4 | x | -3.7 | -0.8 | -1 | 12
O=C(CCCN1C(=O)C2CC=CCC2C1=O)Nc1ccccc1Cl (stereo unspecified) | 0 | -1.2 | -0.6 | 0 | -2.7 | u | 0 | 4
C=CCn1c(SCCC)nc2sc3c(c2c1=O)CCc1ccccc1-3 | 6 | 3.5 | 1.0 | -2 | 1.8 | 2.1 | 32 | 8

Next section
SMILES | Beta cell apopt | UCH37 DUB inh | A1 inh | B2AR ag | LANA-H2A inh | RanGTP-Impb inh | T cruzi repl | Calb FLC
Cc1ccc(NC(=O)c2ccccc2NS(=O)(=O)c2ccc(Cl)s2)cc1 | 77* | 0.3 | -0.3 | 14 | x | -2.8 | -38 | 78*
CCc1cc(-c2nc(N)ncc2-c2csc(C)n2)c(O)cc1OC | -9 | 6.4 | 0.0 | 1 | -5.9 | -1.0 | -2 | 11
O=c1c2ccccc2nc(/C=C/c2ccc(Br)cc2)n1CCCO | 8 | -52 | 0.2 | -2 | 3.0 | -3.1 | 0 | -12
COc1ccc(S(=O)(=O)N2CCC3(CC2)CC(=O)c2ccccc2O3)cc1 | x | -11 | 1.2 | 3 | 2.0 | 0.6 | 1 | -8
Cc1ccc(C)c(OCC(=O)Nc2cccc(S(=O)(=O)NC3=NCCCCC3)c2)c1 | -6 | 2.0 | 0.0 | 1 | -5.5 | -2.9 | 6 | -6
COc1cc(CN(C)Cc2cc(=O)oc3cc(C)c(Cl)cc23)ccc1OC(F)F | 5 | 3.2 | 1.4 | -3 | -1.4 | -2.5 | 26 | 4
O=C(CCNS(=O)(=O)c1ccccc1F)NC1CCCCCC1 | 1 | -0.3 | 1.2 | 0 | 3.3 | x | x | x
Nc1ccccc1C(=O)NNC(=O)C(=O)/C=C(\O)c1ccccc1 | -1 | -4.3 | -0.8 | 6 | 2.9 | 0.9 | -12 | 25

Retrieved one by one from above:
SMILES | Beta cell apopt | UCH37 DUB inh | A1 inh | B2AR ag | LANA-H2A inh | RanGTP-Impb inh | T cruzi repl | Calb FLC
COc1ccc(S(=O)(=O)N2CCC3(CC2)CC(=O)c2ccccc2O3)cc1 | x | -11 | 1.2 | 3 | 2.0 | 0.6 | 1 | -8
O=c1c2ccccc2nc(/C=C/c2ccc(Br)cc2)n1CCCO | 8 | -52 | 0.2 | -2 | 3.0 | -3.1 | 0 | -12
COc1cc(CN(C)Cc2cc(=O)oc3cc(C)c(Cl)cc23)ccc1OC(F)F | 5 | 3.2 | 1.4 | -3 | -1.4 | -2.5 | 26 | 4
CCc1cc(-c2nc(N)ncc2-c2csc(C)n2)c(O)cc1OC | -9 | 6.4 | 0.0 | 1 | -5.9 | -1.0 | -2 | 11
Nc1ccccc1C(=O)NNC(=O)C(=O)/C=C(\O)c1ccccc1 | -1 | -4.3 | -0.8 | 6 | 2.9 | 0.9 | -12 | 25
O=C(CCNS(=O)(=O)c1ccccc1F)NC1CCCCCC1 | 1 | -0.3 | 1.2 | 0 | 3.3 | x | x | x

Screens from PubChem.
